# Screening results as filed in PubChem.
# ALR H2O2 inh: inhibitors of human ALR sulfhydryl oxidase, primary screen, biochemical, H2O2 detection, HRP-luminol luminescence, single point; 3.8% of 290,000 active; purified ALR, DTT oxidation; inhibition, % (test concentration not listed); AID 485317, 2010;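 active = mean and each replicate at 75% or more; inconclusive = only one of the two met; inactive = neither met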;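 note: stock transfer was 7.5 nL into about 7.5 µL; 0% = neutral wells and 100% = wells with inactivated enzyme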
# LANA-H2B inh: blockers of LANA interaction with H2A/H2B – biochemical, FP readout, HTS, primary screen | inhibition, % (concentration not given with the values) | AID 2629, 2010 | cell-free LANA-H2A/H2B peptide, fluorescence polarization | 0.6% of 320,000 active | Protein LANA1 (Human herpesvirus 8 type P (isolate GK18)), Q9QR71; in the data active = inhibition mostly above about 10%, no sharp cut-off; inactive = mostly below about 6.7%;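 note: stock transfer was 7.5 nL into about 10 µL; 0% = median of vehicle wells and 100% = median of positive control wells; one replicate is shown; the record names a cut of 25% in any replicate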
# Target sequence (Q9QR71 whole entry, looked up): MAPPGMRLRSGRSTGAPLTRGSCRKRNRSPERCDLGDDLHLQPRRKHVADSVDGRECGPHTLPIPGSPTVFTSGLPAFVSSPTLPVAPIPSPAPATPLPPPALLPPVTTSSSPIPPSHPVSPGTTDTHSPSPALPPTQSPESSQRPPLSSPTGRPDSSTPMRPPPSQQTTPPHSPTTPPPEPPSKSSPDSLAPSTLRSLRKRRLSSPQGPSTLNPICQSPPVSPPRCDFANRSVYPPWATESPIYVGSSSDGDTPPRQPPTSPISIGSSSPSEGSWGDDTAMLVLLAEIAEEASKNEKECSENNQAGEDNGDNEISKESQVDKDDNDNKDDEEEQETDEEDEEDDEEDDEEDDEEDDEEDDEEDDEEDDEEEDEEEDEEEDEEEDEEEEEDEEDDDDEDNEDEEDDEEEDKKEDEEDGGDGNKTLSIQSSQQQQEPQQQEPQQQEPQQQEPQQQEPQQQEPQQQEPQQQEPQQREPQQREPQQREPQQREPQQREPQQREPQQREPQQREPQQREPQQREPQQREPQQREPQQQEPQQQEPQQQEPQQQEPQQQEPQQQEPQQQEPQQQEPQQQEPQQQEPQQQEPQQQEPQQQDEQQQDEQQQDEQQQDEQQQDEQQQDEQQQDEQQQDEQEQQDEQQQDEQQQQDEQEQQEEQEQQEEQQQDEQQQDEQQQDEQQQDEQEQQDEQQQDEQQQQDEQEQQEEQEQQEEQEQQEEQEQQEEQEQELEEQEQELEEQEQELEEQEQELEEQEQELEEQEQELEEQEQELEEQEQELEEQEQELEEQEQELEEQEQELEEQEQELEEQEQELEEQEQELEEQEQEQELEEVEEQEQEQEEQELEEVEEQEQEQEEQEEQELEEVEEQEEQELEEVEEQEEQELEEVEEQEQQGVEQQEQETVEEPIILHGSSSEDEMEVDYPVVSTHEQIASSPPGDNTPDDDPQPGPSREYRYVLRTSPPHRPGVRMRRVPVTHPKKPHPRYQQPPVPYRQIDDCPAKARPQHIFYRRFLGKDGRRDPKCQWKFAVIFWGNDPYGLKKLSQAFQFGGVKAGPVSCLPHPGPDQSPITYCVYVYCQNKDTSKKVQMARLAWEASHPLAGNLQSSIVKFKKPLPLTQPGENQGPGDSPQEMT
# T cruzi repl: inhibitors of intracellular T. cruzi growth, primary screen, luminescence, NIH3T3 host cells. T. cruzi beta-gal in NIH3T3, 90 h. AID 1885, 2009. 1.4% of 300,000 active. inhibition, % (concentration not given with the values);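 active = mean inhibition across valid replicates above about 55%, limit read from the data; inconclusive = mean below that limit but half or more replicates reach it; inactive = mean below it, under half of replicates reach it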;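 note: signal also drops with host cell toxicity which is not excluded here; 0% = plate median of DMSO wells and 100% = zero luminescence signal; higher percent means less beta-gal luminescence so fewer parasites; stock transfer was 50 nL into about 50 µL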
# B2AR ag: beta2AR agonists driving receptor internalization, primary screen, cell-based, FAP fluorogen, flow cytometry | Beta-2 adrenergic receptor (Homo sapiens), P07550 | Am2.2-beta2AR cells; reference of the scale not given here | response, % (no concentration beside the values) | 0.43% of 340,000 active;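 active = response above a set limit, near 3 SD of response in nonfluorescent compounds, cut at about 42% in these data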;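 note: stock transfer was 100 nL into about 11 µL; a reference agonist was the positive control; negative values mostly stem from fluorescent compounds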
# Beta apoptosis: inhibitors of cytokine-induced beta cell apoptosis, primary screen, luminescence; INS-1E cytokine-induced death, ATP luminescence, 48 h; percent of positive-control rescue, neutral wells zero; protection from apoptosis, % (test concentration not listed); 0.8% of 300,000 active; AID 435005, 2010;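 active = all replicates at 75% or more, or half of them and the mean; inconclusive = half reach 75% but not the mean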;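 note: 0% = cytokine-treated negative control wells and 100% = positive control rescue; higher means more ATP so stronger rescue from cytokine killing; wells of about 40 µL received 100 nL stock; the first replicate is given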
# Calb FLC: C. albicans growth inhibition with fluconazole, primary screen, CaCi-2 strain, Alamar Blue fluorescence; C. albicans CaCi-2 (fluconazole-resistant clinical isolate) + fluconazole, 48 h; growth inhibition, % (concentration not given with the values); 0.57% of 300,000 active;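 active = most replicates above 75%; inconclusive = exactly half above 75%; inactive = most below 75%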;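 note: all wells also contain fluconazole at 8 µg/ml as a sub-toxic cotreatment; 0% = median of DMSO wells and 100% = median of geldanamycin control wells; wells of about 8 µL received 7.5 nL stock; the first replicate is given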
# Ecoli rRNA inh: reduced GFP signal of wild-type E. coli, primary screen, bacterial rRNA inhibitor project, GFP/RFP fluorescence, OD600, single point; E. coli WT GFP vs humanized-ribosome RFP mutants, 24 h; hits give low values; DMSO median 0, no signal -100; GFP signal change (wild-type ribosome), % (concentration not given with the values); 1.6% of 350,000 active;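 active = significant combined selectivity score with lowered wild-type GFP, culture density cut under 30%, mutant RFP and density less affected; inactive = any of these conditions unmet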; note: one replicate is shown; some compounds called inactive have numbers as strong as hits
# Bfl-1 A1 inh: caspase 3/7 activation in MEF A1-2A-BIM cells, primary screen, A1 inhibitor project, cell-based, luminescence, HTS. Caspase-Glo 3/7 luminescence, 3 h; percent of clofoctol response, vehicle zero. caspase activation, % (test concentration not listed). 0.066% of 330,000 active. AID 2462, 2010;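 active = over half of replicate activation scores above 10%, or exactly half above 10 with the replicate mean above 10; inconclusive = replicate mean below 10 yet half the replicates above 10; inactive = over half of replicates below 10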;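 note: wells of about 30 µL received 50 nL stock; many hits fall short of the cut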
# Ecoli rRNA inh OD600: second read-out of Ecoli rRNA inh, no call of its own (marks repeat the call); OD600 change, %; measured here: OD600 growth;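 optical density of the mix in the first replicate; 0 = DMSO median and -100 = no signal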
# Ecoli rRNA inh RFP: also measured in Ecoli rRNA inh; calls as there; RFP signal change, %; measured here: RFP humanized mutant strains;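 first replicate; 0 = DMSO median and -100 = no signal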
# An asterisk follows results filed as active; ? = inconclusive; / = no result given. This is a subset; count on the stated rates, not on these rows.
SMILES,ALR H2O2 inh,LANA-H2B inh,T cruzi repl,B2AR ag,Beta apoptosis,Calb FLC,Ecoli rRNA inh,Ecoli rRNA inh OD600,Ecoli rRNA inh RFP,Bfl-1 A1 inh
O=C(CC1CCCCC1)NCc1ccccc1,-2,3.3,-15,0,-4,-4,16,15,4.1,0.0
O=c1[nH]nc(CNc2ccc(C(F)(F)F)cc2)c2ccccc12,-17,-1.5,-1,-13,4,5,/,/,/,-0.1
CC(=O)c1ccc(NC(=O)C2=CC(c3ccc4c(c3)OCO4)=NS(=O)(=O)N2C)cc1,0,3.9,10,5,-2,-9,-5,-8,0.0,-0.2
COc1ccc(NC(C)=O)cc1NC(=O)c1cccc(S(=O)(=O)N2CCc3ccccc32)c1,4,-0.6,/,4,-19,/,/,/,/,0.6
Cc1ccc(-c2nn(C)c(=O)c3ccccc23)cc1CNC(=O)c1ccco1,-3,5.7,13,-10,7,0,/,/,/,0.3
Cc1oc2nc(SCC(=O)NC3CCCCC3)nc(N)c2c1C,1,-0.4,9,-12,-2,-17,/,/,/,-0.6
N#C/C(=C\c1c(N2CCCCC2)nc2ccccn2c1=O)C(=O)NCc1ccco1,-9,4.7,-3,-20,2,-3,-3,-3,3.8,0.6
Cc1cc(C(=O)CSc2nncs2)c(C)n1Cc1ccco1,3,-5.5,-8,-3,5,5,-16,-27,3.3,1.2
S=c1[nH]c2ccc3ccccc3c2[nH]1,-26,-4.0,-22,0,-2,3,/,/,/,0.5
Cc1ccc(NC(=O)c2cccnc2)c([N+](=O)[O-])c1,1,7.1,-17,-5,5,5,8,12,1.9,-0.1
COc1ccc(/C=N/N(C)C2=NS(=O)(=O)c3ccccc32)cc1,-8,-2.6,-5,-2,2,-1,2,17,-0.1,1.8
O=C1OCCN1C(=O)[C@H]1[C@H](c2ccc(F)cc2)C(c2ccc(F)cc2)=NN1c1ccccc1,3,8.5,-3,-2,1,15,8,26,7.2,0.1
CSc1ccc(-c2nc(CSCC(=O)NCCCN3CCCC3=O)c(C)o2)cc1,95*,0.4,-3,/,-10,21,11,0,3.2,-0.7
Cc1cc(C)c(OCC(=O)OC(C)C(=O)N2CCc3ccccc32)c(C)c1 (configuration not stated),-1,2.0,-15,-6,-4,7,-14,-30,-2.9,1.1
CCCNC(=O)/C(C#N)=C1\N=C(NC(=O)c2ccco2)c2ccccc21,4,1.9,-1,8,1,29,-8,1,1.3,0.7
COc1ccc2nc(NC(=O)CSc3nnc(N)s3)sc2c1,-4,1.2,-26,75*,1,4,7,1,-0.9,-0.5
N#C/C(=C(/O)CCCl)c1ccccn1,5,5.8,3,1,-6,-12,/,/,/,0.4
CC(C)(C)c1ccccc1OCC(=O)NCc1ccccc1,-10,-2.4,0,-1,1,3,-13,-19,-9.1,0.7
O=C(Nc1cccc(/C=C/c2ccccn2)c1)c1ccc(-n2cncn2)c([N+](=O)[O-])c1,-1,3.3,38,31,/,6,-23,-20,-1.0,-2.4
O=C1CCSc2cccc3cccc(c23)N1,-6,3.7,2,10,-12,-1,4,-1,-1.8,0.6
CCCCc1nnc(NC(=O)CCS(=O)(=O)c2ccc(C)cc2)s1,-3,-0.7,/,6,-27,/,21,14,0.4,0.8
COC(=O)c1ccccc1NC(=O)Cn1nc2n(C)c3ccccc3n2c(=O)c1=O,-18,-2.9,3,/,3,-2,/,/,/,0.4
Cc1ccc(NC(=O)CCC(=O)N2CCN(S(=O)(=O)c3ccc(C)cc3)CC2)cc1,-3,1.5,/,0,2,/,16,8,2.4,0.2
Cc1onc(-c2ccccc2Cl)c1C(=O)NC1CCCCCC1,/,-1.6,14,4,6,-23,-11,-19,-1.5,0.7
COc1cccc(/C=C/c2ccccn2)c1O,50,1.1,-5,-5,-2,0,-2,-3,-4.2,-7.5
COc1ccc(C(=O)OCC(=O)Nc2ccc(N3CCOCC3)cc2)cc1,/,5.4,/,4,-3,/,4,12,0.6,1.6
Cc1ccc(NC(=O)c2ccc(OC(=O)CCN3C(=O)c4ccccc4C3=O)cc2)cc1,-1,-0.8,-1,-4,14,6,/,/,/,-4.0
CC1=C(C)CC(C(=O)NC2CCN(C(C)C)CC2)C(C(=O)O)C1 (configuration not stated),-4,1.3,?,-5,8,6,-3,10,4.2,-0.5
Cc1nnsc1C(=O)Nc1ccccc1,1,-4.3,-10,-2,-7,-2,/,/,/,-2.6
COc1cc(NC(=O)Cc2c(C(=O)O)n(C)c3ccccc23)cc(OC)c1OC,-9,1.2,-22,-14,-8,5,2,8,-2.4,0.1
CCn1c(SCC(O)c2ccccc2)nnc1-c1ccccc1 (configuration not stated),-15,1.4,1,-1,-7,-2,/,/,/,0.2
CCOC(=O)N1CCC2(CC1)C(C#N)=C(N)Oc1c2sc2nc(C)cc(C)c12,14,-0.3,?,-6,14,-6,/,/,/,0.1
Cc1cc([N+](=O)[O-])cc2c1NCC1CC=CC21 (configuration not stated),8,0.7,6,4,-7,9,-29,-51,-8.1,0.0
CCn1ncc(C2=NOC(C(=O)Nc3ccc4c(c3)OCO4)C2)c1C (configuration not stated),-28,-3.1,-10,5,-1,-4,/,/,/,-0.1
COc1ccc(COC(=O)CCS(=O)(=O)c2ccc(C)cc2)cc1F,/,0.6,-10,-2,-1,0,-6,-10,0.5,0.3
CS(=O)(=O)N1CCN(C(=O)Nc2ccccc2)CC1,-2,0.1,-16,3,-3,4,6,5,5.2,-0.2
Cc1ccc(C)c(OCC(O)CN2CCN(CCN3C(=O)c4cccc5cccc(c45)C3=O)CC2)c1 (configuration not stated),-29,1.8,47,3,43,19,/,/,/,1.1
CCc1ccc(NC(=O)CSc2n[nH]c(C)c2[N+](=O)[O-])cc1,2,3.4,-10,-1,-2,-6,/,/,/,0.3
COc1ccccc1-c1c(C)nn2c(-c3ccccc3)cc(C)nc12,-18,3.4,9,-4,14,15,-22,-7,11,1.4
COc1ccc(N2CCN(C(CNC(=O)c3ccc4c(c3)OCO4)c3ccco3)CC2)cc1 (configuration not stated),57,4.0,2,-6,-10,2,6,10,-4.0,0.4
CC1CC(C)CN(S(=O)(=O)N2CCCC(C(=O)NCCc3ccccc3)C2)C1 (configuration not stated),1,-1.4,14,-3,3,0,1,-2,-2.6,-0.4
CCCc1nnc2n1N=C(c1ccc([N+](=O)[O-])cc1)CS2,-4,-0.5,13,-9,4,-8,12,1,-2.7,-0.6
CCC(=O)NC(c1ccc(N(C)C)cc1)c1c(O)ccc2ccccc12 (configuration not stated),61,4.8,-7,-6,-3,14,11,-11,3.9,0.3
COc1ccc(OC)c(S(=O)(=O)NCC(c2ccco2)S(=O)(=O)c2ccccc2)c1 (configuration not stated),-3,0.9,2,8,/,2,-13,-3,8.9,1.4
CCOC(=O)Cn1c(-c2ccccc2)cc(SC)c(C#N)c1=O,1,0.7,-6,9,-10,1,1,-1,-3.5,0.0
Cn1cccc1/C=C1\CCC/C(=C\c2cccn2C)C1=O,/,-0.8,6,8,1,-1,/,/,/,1.5
CCOc1ccc(CNc2ccc(N3CCOCC3)c(C(=O)O)c2)cc1,/,-3.7,-26,7,-2,-1,/,/,/,-0.2
CCCCCC1=NN2C(=O)CC(=O)N=C2S1,0,-2.1,1,-8,-2,-7,-4,5,-2.0,-0.2
O=C(CSc1ccc(-c2cccs2)nn1)N1CCCCCC1,-3,-2.5,4,-24,0,-18,/,/,/,-0.5
c1ccc(C2Nc3ccccc3-c3nc4ccccc4n32)nc1 (configuration not stated),13,1.1,-16,0,1,2,/,/,/,-0.5

# New compounds follow.
SMILES,ALR H2O2 inh,LANA-H2B inh,T cruzi repl,B2AR ag,Beta apoptosis,Calb FLC,Ecoli rRNA inh,Ecoli rRNA inh OD600,Ecoli rRNA inh RFP,Bfl-1 A1 inh
CCC(C)NC(=O)c1cc(CC(C)C)on1 (configuration not stated),-7,5.0,-4,0,-10,2,-3,-13,-12,0.5
COc1ccc(NC(=O)COC(=O)C2CC(=O)N(CCc3ccc(OC)c(OC)c3)C2)cc1Cl (configuration not stated),-9,3.0,/,1,-1,/,-7,-7,3.8,0.8
Brc1ccc(/C=N/N2CCN(C3c4ccccc4-c4ccccc43)CC2)s1,0,-0.2,6,-2,-1,27,/,/,/,0.0
COC/C=C/C1=CC2=CC(=O)C(C)(OC(=O)c3cnc4ccccc4n3)C(=O)C2=CN1CCCCO (configuration not stated),-36,-3.5,-8,6,-3,6,3,8,1.7,-0.1
CC(=O)Nc1ccc(S(=O)(=O)N2CCN3CCCC3C2)cc1 (configuration not stated),-7,1.9,-15,2,1,-2,9,14,2.5,0.6
CCN1CCCc2cc(CN(CCN3CCOCC3)C(=S)Nc3ccccc3OC)ccc21,99*,6.9,57*,4,-1,1,-6,-13,6.9,1.4
Cc1cc(C)nc(SCc2nnc(SCC(=O)Nc3c(C)cccc3C)o2)n1,-6,0.8,-4,-3,3,-12,/,/,/,0.0
CCOc1ccccc1NC(=O)C(CC(C)C)NC(=O)C1CCC(C)CC1 (configuration not stated),/,2.3,2,-4,-7,-8,/,/,/,-0.2
CCC(CC)N1CCN(CCc2ccccc2)C(CCO)C1 (configuration not stated),1,13,4,-6,-9,-4,4,1,2.1,-0.8
CCn1cc2nc(SCC(=O)Nc3ccc(OC)c(OC)c3)n(Cc3ccc(OC)cc3)c(=O)c2n1,-9,1.1,6,-9,-5,-8,7,8,-3.0,1.3
CC(C)S(=O)(=O)C/C(N)=N/OS(=O)(=O)c1ccc(Cl)cc1,0,1.4,-11,1,-6,2,8,2,-2.4,-0.3
CCn1c(=O)c(=O)[nH]c2cc(C(=O)NCC3CCCCC3)ccc21,-11,-5.0,-12,3,2,3,/,/,/,0.3
COc1cccc(NC(=O)CSCc2cc(=O)n3nc(C4CC4)sc3n2)c1,99*,-2.2,-6,4,-3,0,6,-7,3.0,-0.6
CCOc1cc2c(C#N)c(N(CC)CC)nc(N)c2c(N)n1,67,-7.4,10,2,3,19,12,16,10,-0.8
COC(=O)c1c(N)sc(C(=O)N2CCOCC2)c1C,14,5.1,-11,6,-1,-9,/,/,/,1.0

# Reprinted at random: two records from the list
SMILES,ALR H2O2 inh,LANA-H2B inh,T cruzi repl,B2AR ag,Beta apoptosis,Calb FLC,Ecoli rRNA inh,Ecoli rRNA inh OD600,Ecoli rRNA inh RFP,Bfl-1 A1 inh
CCC(=O)NC(c1ccc(N(C)C)cc1)c1c(O)ccc2ccccc12 (configuration not stated),61,4.8,-7,-6,-3,14,11,-11,3.9,0.3
COc1ccc(NC(=O)COC(=O)C2CC(=O)N(CCc3ccc(OC)c(OC)c3)C2)cc1Cl (configuration not stated),-9,3.0,/,1,-1,/,-7,-7,3.8,0.8
